# Screens: PubChem, National Center for Advancing Translational Sciences (NCATS)
# HSD17B inhib: inhibitors of human HSD17B10 dehydrogenase. Potency, µM (titrated, usually from 57.1 µM), for the others: at the highest dose activity change, negative = inhibition, hits mostly inhibitors. 75,000 compounds, 7.6% hits. recombinant HSD17B10, NADH fluorescence kinetic; many of its hits are not listed in these tables. Q99714; active = well fitted inhibition curve with a large enough effect; inconclusive = small, poorly fitted or top-dose-only effect; inactive = no such curve, though single readings can be large or run the other way;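 note: the protocol describes HADH2 (HSD17B10) and not the HSD17B4 of the title; nearly all actives have a fitted effect of over 70% in size; most hits overshoot -100% by far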
#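 His-tagged E. coli-expressed HADH2 at 20 nM in 100 mM Tris-HCl pH 9.0 with 0.01 % Tween-20, preincubated 15 min with compound at room temperature. Reaction with 1 mM NAD+ and 90 uM beta-hydroxybutyryl coenzyme A; NADH fluorescence (360/450 nm) read kinetically over 4 min, last minus first point.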
# * hit, by the source's call; ? = inconclusive; [ ] = dose if it differs, or a comment. % is set by controls: 0 for no effect and ±100 for the full control effect; potency is the fitted concentration of half-maximal effect. Only part of the results is shown (hit frequency here may not be typical).
1	CCOC(=O)N1CCN(C(=O)C2CCN(Cc3nc(-c4ccccc4C)oc3C)CC2)CC1
  HSD17B inhib: 2%

2	CN(Cc1ccco1)c1cc(-c2ccccc2Cl)ncn1
  HSD17B inhib: -26%

3	O=C(CCN1CCCCC1)NCC1OCCc2ccccc21 (stereo not drawn)
  HSD17B inhib: -7%

4	COc1ccc(CCn2nnnc2C(C(C)C)N2CCN(c3ncccn3)CC2)cc1OC (stereo not drawn)
  HSD17B inhib: 5%

5	c1ccc(-c2cc(-c3cc(-c4ccccn4)[nH]n3)n[nH]2)nc1
  HSD17B inhib: 5%[11.4 µM]

6	Cc1ccc(N(CC(=O)Nc2ccc(F)c(Cl)c2)S(=O)(=O)c2c(C)noc2C)cc1
  HSD17B inhib: 2%

7	CCOC(=O)c1cn(CC)c2ccc(S(=O)(=O)N3CC(C)CC(C)C3)cc2c1=O (stereo not drawn)
  HSD17B inhib: -4%

8	O=P(O)(CN1CCCCC1)CN1CCCCC1
  HSD17B inhib: 2%

9	CCCCOC(=O)C(C#N)c1nc2ccccc2nc1N1CCOCC1 (stereo not drawn)
  HSD17B inhib: -9%

10	CC(=O)ON1C(C)(C)CC(OC(=O)c2ccccc2)CC1(C)C
  HSD17B inhib: 1%

11	CCOC(=O)CSc1nc2ccccc2c(=O)n1C1CCCC1
  HSD17B inhib: 3%

12	COC(=O)[C@H](C)NC(=O)Nc1ccc(OC(F)(F)F)cc1
  HSD17B inhib: 4%

13	CN(CC(=O)NCc1ccc(Cl)cc1)S(=O)(=O)c1cccc2nsnc12
  HSD17B inhib: -5%

14	CCCCn1c(=O)n(CC(=O)Nc2c(CC)cccc2CC)c(=O)c2c1nc(CO)n2CCC
  HSD17B inhib: 6%

15	O=C(c1[nH]o[n+](=O)c1C(=O)c1csc2ccccc12)c1csc2ccccc12
  HSD17B inhib: -2%[11.4 µM]

16	COc1ccc(C(=O)C(c2ccccc2)N2CCOCC2)cc1 (stereo not drawn)
  HSD17B inhib: 2%

17	CCN(CC)C(=O)Nc1cnc2ccccc2c1
  HSD17B inhib: ?

18	N[C@@H]1C(O)OC(CO)C(O)C1O (stereo partly drawn)
  HSD17B inhib: 1%

19	O=C(O)CSc1nnc(Cn2cnc3ccccc32)n1CCc1ccccc1
  HSD17B inhib: 9%

20	Cc1cc(C)cc(OCCCCCNCCO)c1
  HSD17B inhib: -5%

21	O=C(c1ccco1)N1CCN(CC(O)Cn2c3ccccc3c3ccccc32)CC1 (stereo not drawn)
  HSD17B inhib: 8%

22	CCOC(=O)c1ccc(NCc2ccc3c(c2)OCO3)cc1
  HSD17B inhib: ?

23	O=C(c1ccco1)N1CCCN(C(=O)c2ccco2)CC1
  HSD17B inhib: 12%

24	N[C@@H](Cc1nn[nH]n1)C(=O)O
  HSD17B inhib: 8%[11.4 µM]

25	OC(Cn1cncn1)c1ccc(Cl)cc1 (stereo not drawn)
  HSD17B inhib: 7%

26	CCN(CC)S(=O)(=O)c1ccc(Cl)c(C(=O)Nc2nncs2)c1
  HSD17B inhib: -2%

27	Cc1ccc2oc(-c3ccc(NC(=O)c4cccnc4)cc3)nc2c1
  HSD17B inhib: 32µM*

28	COCCN1C(=O)C(CC(=O)Nc2ccc(C(=O)O)cc2)SC1=Nc1ccccc1 (stereo not drawn)
  HSD17B inhib: -6%

29	Cc1ccc(CN2CCN(C(=O)CCN3C(=O)c4ccccc4C3=O)CC2)cc1
  HSD17B inhib: 8%

30	O=C(Nn1c(=O)[nH]c2ccsc2c1=O)c1ccccc1
  HSD17B inhib: -11%

31	O=C(COC(=O)c1ccco1)Nc1cccc(Br)c1
  HSD17B inhib: 3%

32	COc1ccc(S(=O)(=O)Nc2cccc(Cl)c2)cc1OC
  HSD17B inhib: 7%

33	CN(C)c1nc2c(c(=O)n(C)c(=O)n2C)n1CC(=O)c1cccs1
  HSD17B inhib: 14%

34	CCOc1ccc2[nH]c(=O)c(CN(CCO)C(=O)c3ccc(Br)cc3)cc2c1
  HSD17B inhib: 16µM*

35	CCOC(=O)Cn1c(=O)oc2cc(S(=O)(=O)N3CCc4ccccc43)ccc21
  HSD17B inhib: -2%

36	CCn1c(SCC(=O)Nc2ccc(S(=O)(=O)Nc3ccccn3)cc2)nnc1-c1ccncc1
  HSD17B inhib: -4%

37	Cc1onc(-c2ccccc2Cl)c1C(=O)Nc1c(C)n(C)n(-c2ccccc2)c1=O
  HSD17B inhib: 10%

38	Cc1cc(C)n(CC(=O)O)n1
  HSD17B inhib: 11%

39	Nc1nncn1C(=O)c1cc(Br)ccc1Cl
  HSD17B inhib: -4%

40	CC(C)C(=O)Nc1cc2c(cc1C(=O)c1ccccc1)OCCO2
  HSD17B inhib: -1%

41	O=C(CN(C(=O)c1ccc2c(c1)OCCO2)c1ccccc1)NCC1CCCO1 (stereo not drawn)
  HSD17B inhib: 2%

42	O=C(CN1CCN(c2ccccn2)CC1)Nc1ccc(OCc2ccccc2)cc1
  HSD17B inhib: -21%

43	CC(=O)c1c(N2CCN(C(=O)C3CCCO3)CC2)nc(=S)n(-c2ccccc2)c1C (stereo not drawn)
  HSD17B inhib: -7%

44	Cc1nc(CCNC(=O)c2ccccc2)cs1
  HSD17B inhib: 3%

45	COc1ccc(-c2ccnc(SCC(=O)N3CCOCC3)n2)cc1
  HSD17B inhib: 25µM*

46	O=C(CN1C(=O)C2C3C=CC(C3)C2C1=O)Nc1nc(SCc2ccc(Cl)cc2)n[nH]1 (stereo not drawn)
  HSD17B inhib: -4%

47	COC1Cc2ccccc2N(C(=O)N2CCN(CCO)CC2)c2ccccc21 (stereo not drawn)
  HSD17B inhib: -6%

48	CCCNS(=O)(=O)c1ccc(CCC(=O)NCc2ccco2)cc1
  HSD17B inhib: -10%

49	O=C(Nc1ccccc1C(=O)N1CCOCC1)c1cccc(S(=O)(=O)N2CCCC2)c1
  HSD17B inhib: -1%

50	Nc1nc2c(nc(Br)n2[C@@H]2O[C@H]3COP(=O)(O)O[C@H]3[C@@H]2O)c(=O)[nH]1
  HSD17B inhib: 4%

51	CC(=O)NCCNc1nc(-c2cccc(C#N)c2)nc2ccccc12
  HSD17B inhib: -10%

52	COC(=O)c1sccc1NC(=O)c1ccc(Br)o1
  HSD17B inhib: 25µM*

53	COc1ccc(-c2noc(Cc3cccs3)n2)cc1
  HSD17B inhib: 8%

54	COC(=O)C1=C(N)Oc2cc(C)n(CCCn3ccnc3)c(=O)c2C1c1ccc(Cl)cc1 (stereo not drawn)
  HSD17B inhib: -5%

55	CCN1CCC(C(=O)NC2CCCC2)(N(Cc2cccs2)C(=O)Cn2nnc3ccccc32)CC1
  HSD17B inhib: 1%

56	COc1cccc(OC)c1C(=O)Nc1ccc2c(c1)OCCO2
  HSD17B inhib: -2%

57	Cn1nnc2cc(C(=O)N3CCC(c4ccccc4)C3)ccc21 (stereo not drawn)
  HSD17B inhib: 3%

58	O=C(NCC1CCCO1)c1ccc2c(c1)N(Cc1ccccc1)C(=O)CS2=O (stereo not drawn)
  HSD17B inhib: -1%

59	Cc1cc(C)n(-c2ccc(C(=O)C(C#N)c3nc4ccccc4n3C)cc2)n1 (stereo not drawn)
  HSD17B inhib: 10%

60	COc1ccc(S(=O)(=O)N2CCCC2)c(C)c1C
  HSD17B inhib: 6%

61	COc1nc(NCC(C)C)nc(Oc2ccc(OCc3ccccc3)nn2)n1
  HSD17B inhib: 1%

62	O=C(O)CCc1ccc(-c2ccc(Cl)cc2)n1CC(=O)O
  HSD17B inhib: ?

63	COc1cc(C(=O)Nc2ccc3c(c2)OCCO3)ccc1OC(F)F
  HSD17B inhib: -22%

64	CC1=CC(C)(C)N(C(=O)c2ccc(F)cc2)c2cc3c(cc21)OCO3
  HSD17B inhib: -8%

65	C=CCn1c(N)c(C(=O)NCCC2=CCCCC2)sc1=S
  HSD17B inhib: ?

66	COCCNC(=O)c1cc(-c2cccc(OC)c2)on1
  HSD17B inhib: 6%

67	CN(C(=O)c1cc2n(n1)C(C(F)(F)F)CC(c1ccco1)N2)c1ccccc1 (stereo not drawn)
  HSD17B inhib: 11%

68	CC1(C)CC(=O)C=C(Nc2ccc(F)cc2F)C1
  HSD17B inhib: -1%

69	CC(=O)c1ccc(CCCC(=O)O)cc1
  HSD17B inhib: ?

70	CCOc1ccc(N2CCCCn3c2nc2c3c(=O)[nH]c(=O)n2C)cc1
  HSD17B inhib: -3%

71	COc1cccc(CNC(=O)Cn2cc3c(n2)CCCC3)c1
  HSD17B inhib: 5%

72	CCCn1c(NCc2cccs2)nc2ccccc21
  HSD17B inhib: -2%

73	O=C(CCN1CCN(c2ccccc2)CC1)Nc1ccc2c(c1)OCO2
  HSD17B inhib: 8%

74	CCOC(=O)N1CCN(C(=O)CNS(=O)(=O)c2cccs2)CC1
  HSD17B inhib: 8%

75	CCN(CC)C(=O)c1n[nH]c(=O)c2ccccc12
  HSD17B inhib: 14%

76	O=C(NC1CC1)c1ccc(CSCc2cccc(F)c2)o1
  HSD17B inhib: -3%

77	C=CCn1c(N)c(C(=O)NCc2ccco2)sc1=S
  HSD17B inhib: -26%

78	Cc1ccc2c(c1)C1(C(=O)N2C)N2CC3(C)CN1CC(C)(C2)C3=O (stereo not drawn)
  HSD17B inhib: 5%

79	NC[C@@]12CCCC1C1CCC2C1 (stereo partly drawn)
  HSD17B inhib: 1%

80	COc1ccc(CNCC(O)COCc2cccs2)cc1 (stereo not drawn)
  HSD17B inhib: 5%

81	COC(=O)c1sccc1NC(=O)c1csc2c1CCCC2
  HSD17B inhib: -24%

82	COc1ccc(-c2cc(=O)c3c(OC)c(OC)c(OC)c(OC)c3o2)cc1
  HSD17B inhib: -17%

83	CCc1nnc(NC(=O)c2ccc(COc3ccccc3)o2)s1
  HSD17B inhib: -6%

84	COc1ccc(N(CC(=O)NC(C)(C)C)S(=O)(=O)c2ccccc2)cc1OC
  HSD17B inhib: 12%

85	O=C(O)CNC(=O)c1ccccc1NC(=O)c1ccco1
  HSD17B inhib: -3%

86	Cc1cc(C(=O)O)c(=O)[nH]c1C
  HSD17B inhib: 32µM*

87	CNC(=O)NCC12CC3CC(CC(C3)C1)C2
  HSD17B inhib: 32%[activator]

88	CC(=O)Nc1ccc(S(=O)(=O)Nc2nc3ccccc3nc2N2CCCC2)cc1
  HSD17B inhib: -23%

89	COc1cc(OC)cc(C(=O)NCC(=O)OC2CCOC2=O)c1 (stereo not drawn)
  HSD17B inhib: 4%

90	CN(Cc1ccccc1)S(=O)(=O)c1ccc2[nH]cc(C(=O)NCC3CCCO3)c(=O)c2c1 (stereo not drawn)
  HSD17B inhib: 25µM*

91	Oc1ccc(Cl)cc1/C=N/c1nccs1
  HSD17B inhib: -11%

92	Cc1ccc(CS(=O)(=O)CCC(=O)NCc2ccc3c(c2)OCO3)cc1
  HSD17B inhib: -5%

93	COc1ccc2cc(CN(Cc3ccco3)C(c3nnnn3C3CCCCC3)C(C)C)c(=O)[nH]c2c1 (stereo not drawn)
  HSD17B inhib: -2%

94	COc1ccc(C(=O)N2CCN(S(=O)(=O)N3CCOCC3)CC2)cc1OC
  HSD17B inhib: 13%

95	CSc1nc2ccc(NS(=O)(=O)c3ccc(Cl)s3)cc2s1
  HSD17B inhib: -3%

96	COc1ccc(NC(=O)N(CCO)Cc2cc3c(C)cc(C)cc3[nH]c2=O)cc1
  HSD17B inhib: -3%

97	Cn1c(SCc2ccc(C#N)cc2)nnc1-c1cccc(Cl)c1
  HSD17B inhib: -1%

98	Cc1cc(NC(=O)CSc2nnc(Cc3ccccc3)o2)no1
  HSD17B inhib: 15%

99	COC(=O)c1c(NC(=O)CSc2nnnn2-c2ccccc2)sc2c1CCCC2
  HSD17B inhib: -8%

100	O=C(c1csnn1)N1CCC2(CC1)CN(c1ccncc1)C2
  HSD17B inhib: 6%

101	CCC1=C(OC(=O)N(CC)CC)N2C(=O)OC(=NCC(=O)OC)[C@]2(Cc2ccccc2)[C@H]2C1=CC[C@H]1C(=O)N(C)C(=O)[C@H]12
  HSD17B inhib: -1%

102	COCCNC(=O)CN(c1ccc(C)cc1)S(=O)(=O)c1ccc(SC)cc1
  HSD17B inhib: 4%

103	Cc1nc2cnc(Nc3ccccc3)nc2n(CCc2ccccc2)c1=O
  HSD17B inhib: 6%

104	CC(=NC1CCCCC1)c1ccccc1O
  HSD17B inhib: -20%[11.4 µM]

105	O=C1CC(N2CCN(c3ccc(Cl)c(Cl)c3)CC2)C(=O)N1 (stereo not drawn)
  HSD17B inhib: -1%

106	COc1ccc(OCC(=O)Nc2ccc(N3CCOCC3)cc2)cc1
  HSD17B inhib: -1%

107	N#CC1=C(N)SC(N)=C(C#N)C1c1cccc(Oc2ccccc2)c1
  HSD17B inhib: ?

108	Cc1ccccc1C(=O)Nc1ccc2nc3n(c(=O)c2c1)CCC3
  HSD17B inhib: 2%

109	O=C(NC1CCCCC1)C(c1ccccc1)N1CCC2(CC1)OCCO2 (stereo not drawn)
  HSD17B inhib: 4%

110	COc1ccc(-c2nc3cc(NC(=O)c4ccc5c(c4)OCO5)ccc3o2)cc1
  HSD17B inhib: 7%

111	O=C(Nc1nccs1)c1ccc(Cl)c(S(=O)(=O)N2CCCCC2)c1
  HSD17B inhib: -5%

112	CC(=O)c1c(C)nc(-c2ccc(Cl)cc2)nc1NC(=O)C(C)C
  HSD17B inhib: -14%
